Menin MLL FP FL: qHTS Assay for Inhibitors Targeting the Menin-MLL Interaction in MLL Related Leukemias: Competition With Fluorescein Labeled MLL-derived Peptide; Fluorescence polarization, fluorescein-MLL peptide displacement from menin; FP activity change, % at 61.4 µM; 290,000 tested, under 10 active; inconclusive = falling polarisation curve, or a change in total fluorescence; inactive = total fluorescence flat and polarisation flat or rising; no compound was filed as active; the % refers to the polarisation; negative = inhibition;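 further: % of control where 0% means no effect; inhibitors lower the polarisation; unlabelled MLL peptide was the positive control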
D2 PAM: Beta-Arrestin HTS for Positive Allosteric Modulators of the Human D2 Dopamine Receptor: Potentiators. D(2) dopamine receptor (Homo sapiens), P14416. DiscoveRx D2 beta-arrestin cells, luminescence, 90 min; 100% = 57 uM dopamine signal. potentiation, % (test concentration not listed). actives 0.23% (n = 360,000). AID 624464, 2012; active = potentiation of 50% or more; inconclusive = 30% to 50%; inactive = 30% or less;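 further: compound concentration not given in the record; tested on top of an EC20 dose of dopamine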
Target sequence (P14416 whole entry, looked up): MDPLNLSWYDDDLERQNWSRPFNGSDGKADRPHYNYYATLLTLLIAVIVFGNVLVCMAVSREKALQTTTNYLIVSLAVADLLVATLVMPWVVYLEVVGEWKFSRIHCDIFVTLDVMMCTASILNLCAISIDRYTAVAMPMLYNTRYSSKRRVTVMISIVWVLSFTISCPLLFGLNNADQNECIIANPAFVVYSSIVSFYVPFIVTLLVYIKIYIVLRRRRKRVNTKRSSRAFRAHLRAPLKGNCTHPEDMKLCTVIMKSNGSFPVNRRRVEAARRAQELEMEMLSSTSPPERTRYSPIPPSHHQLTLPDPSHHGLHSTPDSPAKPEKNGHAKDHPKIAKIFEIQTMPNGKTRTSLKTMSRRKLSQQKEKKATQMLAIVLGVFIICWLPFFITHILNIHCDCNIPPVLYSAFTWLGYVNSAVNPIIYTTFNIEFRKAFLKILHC
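PathHunter D2 cells, attached overnight at 37 deg C, received compound in DMSO plus dopamine at EC20 (50 nM final) for 90 min at 37 deg C. Beta-arrestin recruitment was read as luminescence after 1 h with detection reagent at ambient temperature.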
Sfp inh: qHTS Assay for Inhibitors of Bacillus subtilis Sfp phosphopantetheinyl transferase (PPTase) | 4'-phosphopantetheinyl transferase ffp (Bacillus subtilis), Q9F4F7 | Biochemical Sfp PPTase activity, qHTS | Potency, µM, for inactives: max response, negative = inhibition, hits mostly inhibitors | actives 3.5% (n = 310,000) | AID 1490, 2009; active means well fitted inhibition curve with a large enough effect; inconclusive means small, poorly fitted or top-dose-only effect, or another doubt; inactive means no such curve, though single readings can be large or run the other way;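 further: the enzyme is Sfp with the accession as filed and its product quenches rhodamine fluorescence; potency means the concentration at half of the fitted maximal effect; 0% = enzyme reaction without inhibitor and -100% = no enzyme wells; top concentration of the series not given in the record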
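Reaction rates are the 30-min fluorescence difference (ex 525, em 598 nm) in wells containing 15 nM Sfp, 5 uM rhodamine-CoA and 12.5 uM BHQ-2-YbbR at pH 7.6 with 10 mM MgCl2.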
gsp antagonist: qHTS for Antagonists of gsp, the Etiologic Mutation Responsible for Fibrous Dysplasia/McCune-Albright Syndrome: qHTS; AID 624288, 2012; gsp-mutant cells, cAMP HTRF, 30 min; control for the full effect not named in the record; Potency, µM (highest dose often 76.9 µM), inactives show top-dose activity change, negative = inhibition, actives largely listed as inhibitors; actives 0.4% (n = 340,000); active = falling curve of any shape with a large fitted effect; inconclusive = falling curve, mostly with a smaller effect; inactive = flat or rising curve; cell line not stated here;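 further: intracellular cAMP measured with PDE inhibitor Ro 20-1724 present during compound exposure; potency means the concentration at half of the fitted maximal effect; on the % scale 0 is the no-effect control and ±100 the full control effect; nearly all actives have a fitted effect of over 65% in size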
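HTRF cAMP measurement after 30 min RT detection following 30 min, 37C compound treatment alongside […] (added as 300 uM solution) in G418-selected cells seeded at 2000/well and grown 16–24 h.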
TRPV1 PAM: HTS Assay for Compounds that Act as Potentiators of the Vanilloid Receptor 1; actives 0.02% (n = 320,000); Transient receptor potential cation channel subfamily V member 1 (Homo sapiens), Q8NER1; TRPV1-expressing cells, Fluo-8 calcium influx, capsaicin EC20 potentiation; host cell line not named in the record; control for the full effect not named in the record; AID 540277, 2011; potentiation, % at 8.33 µM; active means potentiation above 80%; inconclusive means 30% to 80%; inactive means below 30%; further: 0% is about no effect
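Cells expressing TRPV1 were dye-loaded with Fluo-8 and read kinetically: 10 s baseline, 3 min after compound (agonist portion), then 2 min after EC20 capsaicin (allosteric enhancer portion). Calcium-bound dye fluorescence at 480/520 nm.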
ClpP mod: qHTS Assay for Activators of ClpP; purified B. subtilis ClpP, FRET peptide cleavage, 20 min; Potency, µM (highest dose often 57.5 µM), without a hit: top-dose activity change, negative = active; actives 1.9% (n = 340,000); AID 651965, 2013; active = well fitted falling curve with a large enough effect; inconclusive = small, poorly fitted or top-dose-only effect; inactive = no such curve, though single readings can be large or run the other way; further: potency means the concentration at half of the fitted maximal effect; the source files actives as falling curves though it sought activators and does not explain the sign; nearly all actives have a fitted effect of over 65% in size; many hits overshoot -100%
Target sequence (P80244 whole entry, looked up): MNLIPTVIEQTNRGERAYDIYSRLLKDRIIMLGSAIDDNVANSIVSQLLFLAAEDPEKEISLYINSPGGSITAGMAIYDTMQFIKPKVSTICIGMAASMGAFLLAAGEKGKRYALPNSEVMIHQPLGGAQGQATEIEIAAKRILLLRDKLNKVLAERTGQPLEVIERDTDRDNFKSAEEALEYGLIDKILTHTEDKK
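Purified B. subtilis ClpP, 10 microg/mL final in Tris/HCl pH8 with KCl, BSA, glycerol and Tween-20, cleaved an Abz/nitrotyrosine-quenched decapeptide. Fluorescence (ex 320, em 430) was read at 0 and 20 min at room temperature. Delta was normalized to 5.8 microM ADEP and DMSO/no-enzyme controls.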
gsp ag: qHTS for Agonist of gsp, the Etiologic Mutation Responsible for Fibrous Dysplasia/McCune-Albright Syndrome: qHTS. gsp mutant cells, cAMP HTRF, 30 min; control for the full effect not named in the record. Potency, µM (series often up to 76.9 µM), inactives show top-dose activation (cAMP increase), hits mostly activators. actives 0.13% (n = 340,000); active = well fitted activation curve with a large enough effect; inconclusive = small, poorly fitted or top-dose-only effect, or another doubt; inactive = no such curve, though single readings can be large or run the other way; cell line not stated here;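 further: phosphodiesterase inhibitor Ro 20-1724 added with compounds to block cAMP breakdown; potency means the concentration at half of the fitted maximal effect; nearly all actives have a fitted effect of over 60% in size; about a fifth of the inactives were tested at one dose only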
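Cells in DMEM/10% FBS with G418 were pretreated with compounds in DMSO plus […] (300 uM stock) for 30 min at 37C. cAMP was measured by HTRF (cAMP-d2 plus anti-cAMP antibody-K) after 30 min at room temperature.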
* marks the source's active call; other numbers are inactive results; ? = inconclusive; · = not tested or not shown; & = joins results of further samples; [ ] = remark or other dose.

structure	ClpP mod	gsp antagonist	TRPV1 PAM	Menin MLL FP FL	Sfp inh	gsp ag	D2 PAM
O=C1NC[C@@H](c2ccccc2)OC(=O)[C@H](Cc2ccc(F)cc2)CC/C=C/C[C@H]1CC(=O)N(CCO)Cc1ccccc1	-1.5%	?	·	·	·	·	6
Cc1ccc(CN(C)C(=O)c2c(C)nn(-c3ccccc3)c2C)cc1	·	7%	-4	-1.1	13%	-5%	-2
CC(=O)Cc1nsc(NC(=O)c2ccc(COc3ccccc3)o2)n1	-3.2%	-20%	3	6.7	22%	-16%	-8
Nc1nnc(SCCCC(=O)c2ccc(Br)cc2)s1	·	-5%	-5	1.5	18%	-5%[15.4 µM]	-4
O=C(NCc1cccnc1)C1CC(=O)N(c2ccc(Cl)cc2)C1 (stereo unspecified)	0.9%	-10%	-3	1.7	-5%	-13%	-5
Cc1cccc(-n2c(SCC(N)=O)nc3c(c2=O)C2(CCCCC2)Cc2ccccc2-3)c1	-6.2%	?	-26	5.3	17%	16%[15.4 µM]	0
CCN(CC(=O)N1CCCC1)S(=O)(=O)c1ccc2ccccc2c1	0.5%	9%	-8	-0.1	7%	-3%	-3
Cc1[nH]nc2c1C(CCc1ccccc1)C(C#N)=C(N)O2 (stereo unspecified)	-15%	-14%	6	-0.6	10%	-13%	-3
CC(C)NC(=O)Nc1cccc2c1O[C@H](CN(C)C(=O)NC1CCCCC1)[C@@H](C)CN([C@H](C)CO)C2=O	-6.7%	10%	·	·	·	2%	-5
CCCCCCCC(=O)NNC(=O)c1c(O)c2ccccc2[nH]c1=O	1.3%	13%	1	3.4	33%[activator]	-1%	0
O=C(Nc1ccc(S(=O)(=O)Nc2ccccc2)cc1)C1COc2ccccc2O1 (stereo unspecified)	0.5%	-2%	16	-8.7	14%	4%	-2
Cc1nc2c3ccccc3nc(NNC(=O)CCC(=O)N3CCN(c4ccc(F)cc4)CC3)n2n1	-0.8%&-1.6%	-33%	0	1.3	15%	-8%	-10
CCN1C(=O)C(F)(CC)C(=O)c2ccccc21 (stereo unspecified)	-0.6%	-4%	-14	-1.4	5%	?	-6
Cc1c(Cl)cccc1NC(=O)Nc1ccccc1C(N)=O	2.6%	-9%	-7	0.5	7%	-8%	-7
CCc1cccc2c(C(=O)CSc3nnc(C4CC4)o3)c[nH]c12	-0.7%	-11%	0	·	·	-54%[inhibitor]	4
CCCCc1c(C)nc2nc(SCc3ccc(Cl)cc3)[nH]n2c1=O	1.4%	-6%	?	-2.9	0%	-3%	2
CCOC(=O)c1ccc2c(c1)N(C)C(=O)c1ccccc1S2	0.7%	-2%	2	-3.5	-5%	4%	-3
CCC1=NC(c2ccc(Br)cc2)N(O)C1(C)C (stereo unspecified)	·	9%	-9	-1.3	25%	11%	-29
CN(C)S(=O)(=O)c1ccc(C(=O)NCCC(=O)N2CCCC2)cc1	?	8%	-3	1.2	8%	-3%[15.4 µM]	-1
O=C(CCNS(=O)(=O)c1ccccc1)N1CCN(c2ccccc2)CC1	4.7%	5%	3	-6.0	5%	-17%[15.4 µM]	-7
CC(C)(C)OC(=O)N1CCCC(C(=O)Nc2cccc(C(=O)N3CCOCC3)c2)C1 (stereo unspecified)	0.3%	3%	·	·	·	·	0
CNc1nc(Oc2ccc(C(=O)OC)cc2)nc(SC)n1	-0.4%	-2%	-8	3.7	4%	0%	-1
CCC1=NNC(=O)C(CC(=O)Nc2ccccc2)c2cc(OC)c(OC)cc21 (stereo unspecified)	1.9%	11%	-1	-1.5	15%	-12%	-21
OCCSc1nncn1/N=C/c1c[nH]c2ccccc12	-0.8%	10%	6	-1.3	2%	22%	-6
CC(CC(=O)N(C)CC(=O)Nc1ccc(N2CCOCC2)cc1)c1ccccc1 (stereo unspecified)	-2.6%	-7%	-6	·	·	-7%	-14
CC1=NN(c2ccccc2)C(=O)/C1=C\c1c(C)[nH]n(-c2ccccc2)c1=O	-2.8%	-15%	6	-1.9	5%	-26%	-16
COc1ccccc1C(=O)COC(=O)CCCN=C1NS(=O)(=O)c2ccccc21	-4.8%	-2%	15	·	·	-6%	-9
O=C(Nc1ccc(S(=O)(=O)Nc2ncccn2)cc1)c1cnc(Cl)c(Cl)c1	-3.1%	-5%	-1	0.1	23%	3%[15.4 µM]	-2
COCCN(C(=O)COC(=O)CCC(=O)c1ccc(C)cc1)c1c(N)n(Cc2ccccc2)c(=O)[nH]c1=O	-5.0%	11%	6	9.5	0%	-12%	-3
COc1ccc(N2CCN(c3nc4ccccn4c(=O)c3/C=C(\C#N)S(=O)(=O)c3ccccc3)CC2)cc1	-0.3%	-7%	-14	-0.8	19%	14%	-24
C[C@H]1Oc2ccccc2C(=O)C1C(=O)c1ccccc1 (stereo partly specified)	·	-1%	·	·	·	23%	-8
COc1ccccc1NC(=O)N1CCc2[nH]c3ccc(Cl)cc3c2C1	-1.9%	-14%	-5	1.9	-10%	-6%	-8
Cc1cc(C)c(C(=O)Nc2ccccc2)c(CC(C)(C)C(=O)O)c1	·	18%	-8	2.3	14%	-3%[15.4 µM]	3
COc1ccc(CCNC(=O)c2ccc(NC(=O)CC3SC(N4CCCC4)=NC3=O)cc2)cc1OC (stereo unspecified)	-2.1%	10%	·	·	·	14%	-2
COc1cc(NC(=O)C2CCCCC2)c2ncccc2c1	-17%	-13%	16	2.2	0%	-43%[inhibitor]	-15
CC(=O)Oc1ccc(OC(C)=O)c2c1CC1(C)OC1(C)C2 (stereo unspecified)	-1.7%	·	·	·	·	-27%	-3
C=CCn1c(SCC(=O)N2CCN(c3ccccc3)CC2)nnc1-c1ccco1	0.8%	-2%	13	-1.8	26%	1%	-8
Cc1cccc(C)c1OCc1cc(C(=O)N2CCC(c3ccccc3)CC2)no1	-1.1%	0%	-7	·	?	-18%	-11
COc1ccc(OC)c(CN2CCN(C(=O)c3cccs3)CC2)c1	-4.6%	-13%	-1	0.7	?	14%	?
Oc1ccc(-c2nc3cnccn3c2Nc2ccc3c(c2)OCCO3)cc1	-3.3%	-27%	·	?	8%	9%	11
CSCCC(NC(=O)c1ccccc1Cl)C(=O)N(C)CC(=O)Nc1ccc(N2CCOCC2)cc1 (stereo unspecified)	-0.8%	6%	6	·	·	1%	7
CSCCC(NC(=O)c1cc(CC(C)C)oc1C)C(=O)O (stereo unspecified)	-0.9%	2%	-20	4.3	-2%	-6%	0
O=C(NCCCn1ncc2ccccc21)c1cc(COc2c(F)cccc2F)on1	·	-5%	-2	-2.2	18%	14%	-9
Cc1ccc(OCC(O)CN2CCN(Cc3ccc4c(c3)OCO4)CC2)c(C)c1 (stereo unspecified)	-0.8%	4%&2%	-1	0.6	8%	?	-14&-18
Cc1ccc(C)c(N(CC(=O)NCC2CCCO2)C(=O)CCC(=O)Nc2nccs2)c1 (stereo unspecified)	·	12%	-6	3.9	8%	-2%[15.4 µM]	0
O=C(CSc1n[nH]c(=O)[nH]c1=O)N/N=C/C=C\c1ccccc1	·	-2%	-46	18	-12%	-2%[15.4 µM]	-5
CCCCN1C(=O)C2(NNc3ccccc3O2)c2ccccc21 (stereo unspecified)	4.0%	?	-27	?	?	6%	-13
CC(=O)NCCNC(=O)c1ccc2c(c1)S(=O)(=O)c1ccccc1C2=O	·	16%	-6	0.7	2%	-21%	11
Cc1cc(NC(=O)/C=C/C(=O)N(CC(=O)NC2CCCC2)c2ccc(F)cc2)no1	·	8%	0	-2.1	16%	3%	0
Cc1cc(C)c(C)c(OCC(=O)O/N=C(\N)c2ccncc2)c1	·	-1%	-3	-3.7	-12%	16%	1
Nc1c(C(=O)N2CCOCC2)sc(=S)n1-c1ccccc1	0.8%	2%	5	3.5	-87%	-48%[inhibitor]	-1
CCc1c(O)nc(SCC(=O)c2ccccc2)n(-c2ccccc2)c1=O	-2.0%	-14%	6	3.4	7%	?	-8
C=CCNC(=O)C1CC1(c1cccc(C)c1)c1cccc(C)c1 (stereo unspecified)	·	?	·	·	·	14%[15.4 µM]	-5
O=C(NCc1ccc(Cl)cc1)C1CCCO1 (stereo unspecified)	·	13%	2	0.2	4%	-7%	-4
CCCCCCSc1ccc(-c2nc3ccccn3c2NCCCC)cc1	4.5%	2%	21	·	·	?	1
CCc1nnc(NC(=S)Nc2ccccc2)s1	1.5%	-1%	-2	-2.7	-2%	?	-4
O=C(O)CC1(CC(=O)Nc2cc(C(F)(F)F)cc(C(F)(F)F)c2)CCCCC1	·	-6%	16	-4.0	-3%	-6%[15.4 µM]	-1
Cc1cc(C)nc(NC(=O)CN2C(=O)c3ccccc3C2=O)n1	-1.7%	2%	5	5.2	9%	-57%	-6
Cc1c(Br)c([N+](=O)[O-])nn1CC(=O)NCC1CCCO1 (stereo unspecified)	-1.2%	10%	16	2.8	6%	-34%[inhibitor]	?
C/C(=N/NC(=O)c1ccc(Br)o1)c1cccc(NC(=O)c2ccc(C)o2)c1	-2.5%	2%	0	3.9	8%	5%[15.4 µM]	-4

Screens from PubChem BioAssay.
